LANA-H2B inh: blockers of LANA interaction with H2A/H2B – biochemical, FP readout, HTS, primary screen; actives 0.6% (n = 320,000); AID 2629, 2010; inhibition, % (test concentration not listed); cell-free LANA-H2A/H2B peptide, fluorescence polarization; Protein LANA1 (Human herpesvirus 8 type P (isolate GK18)), Q9QR71; in the data active means inhibition mostly above about 10%, no sharp cut-off; inactive means mostly below about 6.7%;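 further: stock transfer was 7.5 nL into about 10 µL; 0% = median of vehicle wells and 100% = median of positive control wells; one replicate is shown; the record names a cut of 25% in any replicate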
Ecoli growth: E. coli growth inhibition, primary screen, OD600 | Escherichia coli growth, 23 h; hits give low values | OD600 absorbance (no concentration beside the values) | actives 0.21% (n = 330,000);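 active means OD600 absorbance below the run mean of sample wells minus 3.6 SD, in any replicate, cut at about 0.56 in these data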;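 further: stock transfer was 300 nL into about 60 µL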
UCH37 DUB inh: inhibitors of human UCH37 deubiquitinase, primary screen, biochemical, Ub-AMC cleavage, fluorescence; AID 588478, 2011; Ubiquitin carboxyl-terminal hydrolase isozyme L5 (Homo sapiens), Q9Y5K5; actives 0.33% (n = 330,000); inhibition, % (concentration not given with the values); purified proteasome/UCH37;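 active means mean of two replicates above 20%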;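 further: 0% = compound-free wells with enzyme and 100% = wells lacking proteasome; stock transfer was 100 nL into about 20 µL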
Target sequence (Q9Y5K5 whole entry, looked up): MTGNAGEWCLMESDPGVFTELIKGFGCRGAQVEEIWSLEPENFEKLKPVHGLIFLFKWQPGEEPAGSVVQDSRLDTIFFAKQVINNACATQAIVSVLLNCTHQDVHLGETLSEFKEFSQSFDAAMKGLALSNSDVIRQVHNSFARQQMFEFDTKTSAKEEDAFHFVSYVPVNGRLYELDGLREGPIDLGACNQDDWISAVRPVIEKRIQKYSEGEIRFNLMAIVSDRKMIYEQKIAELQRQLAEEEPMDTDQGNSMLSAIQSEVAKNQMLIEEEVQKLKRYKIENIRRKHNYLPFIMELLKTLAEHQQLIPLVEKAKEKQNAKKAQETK
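Signal – fluorescence, ex 355 nm, em 460 nm · System – Proteasome-bound UCH37 · Input – 0.15 nM proteasome as dispensed · Timing – 30 min preincubation with enzyme, 25 min cleavage at room temperature · Read-out basis – percent inhibition of cleavage signal versus uninhibited and no-proteasome wells · Medium – Tris-HCl pH 7.4 with ATP-MgCl2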
Vif A3G: inhibitors of Vif binding to APOBEC3G peptide, primary screen, biochemical, TR-FRET, GST-Vif 1-94, biotin-A3G peptide, dose response retest (AID 1117319) | Virion infectivity factor (Human immunodeficiency virus type 1 group M subtype B (isolate … | TR-FRET GST-Vif / biotin-A3G peptide binding; higher % means a stronger effect; test concentration not given here; strong numbers were not always called active | inhibition, %; hits with a dose series show IC50 in µM | actives 0.57% (n = 260,000);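 active means above the screen mean plus three standard deviations and confirmed in dose response; inconclusive means results disagree or hit not tested in dose response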;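 further: Vif residues 1-94 fused to GST binding biotinylated APOBEC3G peptide 110-148; 0% = full assay without inhibitor and 100% = GST in place of GST-Vif; retest series ran down from 100 µM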
Beta2AR agonist: beta2AR agonists driving receptor internalization, primary screen, cell-based, FAP fluorogen, flow cytometry | response, % (concentration not given with the values) | Am2.2-beta2AR cells; reference of the scale not given here | AID 504454, 2011 | actives 0.43% (n = 340,000);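 active means response above a set limit, near 3 SD of response in nonfluorescent compounds, cut at about 42% in these data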;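 further: stock transfer was 100 nL into about 11 µL; a reference agonist was the positive control; negative values mostly stem from fluorescent compounds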
Target sequence (P07550 whole entry, looked up): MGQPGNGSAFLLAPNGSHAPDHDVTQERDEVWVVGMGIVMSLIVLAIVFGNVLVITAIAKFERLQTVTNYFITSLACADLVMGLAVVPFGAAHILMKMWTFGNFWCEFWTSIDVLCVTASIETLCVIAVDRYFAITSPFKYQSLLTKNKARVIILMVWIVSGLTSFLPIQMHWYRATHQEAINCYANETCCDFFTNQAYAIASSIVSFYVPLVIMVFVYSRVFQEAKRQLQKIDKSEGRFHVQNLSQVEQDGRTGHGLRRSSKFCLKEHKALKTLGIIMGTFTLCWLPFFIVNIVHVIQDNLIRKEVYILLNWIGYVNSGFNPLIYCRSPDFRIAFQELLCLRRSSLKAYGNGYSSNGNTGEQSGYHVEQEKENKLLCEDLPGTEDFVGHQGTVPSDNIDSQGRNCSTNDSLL
Bfl-1 A1 inh: caspase 3/7 activation in MEF A1-2A-BIM cells, primary screen, A1 inhibitor project, cell-based, luminescence, HTS. AID 2462, 2010. actives 0.066% (n = 330,000). caspase activation, % (no concentration beside the values). Caspase-Glo 3/7 luminescence, 3 h; percent of clofoctol response, vehicle zero;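 active means over half of replicate activation scores above 10%, or exactly half above 10 with the replicate mean above 10; inconclusive means replicate mean below 10 yet half the replicates above 10; inactive means over half of replicates below 10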;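 further: wells of about 30 µL received 50 nL stock; many hits fall short of the cut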
HNF4A DNA FP: change in binding of human HNF4A to DNA, primary screen, biochemical, fluorescence polarization, FITC-DNA; Hepatocyte nuclear factor 4-alpha (Homo sapiens), P41235; 1 h; activity change, % at 10 µM; actives 0.3% (n = 360,000); AID 1224865, 2016; in the data active means activity change above about 30%, passing the limit was not always enough;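 further: controls were the assay level and a saturating level of protein; the project sought stronger binding though the title names inhibitors; some compounds called inactive have numbers as strong as hits; positive values seem to mean higher polarization but the record does not say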
* hit, by the source's call; ? = inconclusive; nt = not tested or not shown.

Structure | LANA-H2B inh | Ecoli growth | UCH37 DUB inh | Vif A3G | Beta2AR agonist | Bfl-1 A1 inh | HNF4A DNA FP
Cn1c(-c2ccccc2)c(CCO)c2ccccc21 | -2.9 | 0.634 | -6.8 | 28.0% | 19.5 | 0.3 | 1.5
O=C(NCCCCc1ccccc1)c1ccccc1Cl | -3.3 | 0.674 | 1.5 | -0.6% | -2.0 | 1.2 | -4.9
CCCc1cc(=O)oc2c(C)c(O[C@@H]3O[C@H](CO)[C@@H](O)[C@H](O)[C@H]3O)ccc12 | -0.4 | 0.672 | 0.3 | 0.4% | -6.1 | 1.2 | 1.4
COc1cc(O)c(C(CCN2CCCCC2)c2ccc(N(C)C)cc2)c(OC)c1 (stereo not drawn) | 0.7 | 0.698 | 0.1 | 8.6% | -5.4 | 0.5 | -0.2
O=C(Nc1ccc(Cl)cc1)Nc1ccccn1 | -2.5 | 0.73 | 0.8 | nt | -4.2 | -4.6 | -0.7
O=C(Cc1ccccc1)NCC(=O)OCc1cccc([N+](=O)[O-])c1 | -2.9 | 0.728 | -2.3 | 1.1% | -3.5 | -0.3 | 0.9
Cc1cc(=O)oc2cc(OS(C)(=O)=O)ccc12 | 3.6 | 0.607 | -30.2 | ? | 8.2 | -0.3 | 3.4
COC(=O)c1cc(S(=O)(=O)N2CCOCC2)c(N2CCOCC2)cc1N1CCOCC1 | nt | 0.695 | nt | 9.6% | -10.0 | nt | 1.8
C1CCc2nc3c(nc2C1)CCCC3 | 3.9 | 0.737 | -1.3 | 4.2% | -12.1 | 0.0 | 0.7
COC(=O)c1cccc(C(=O)Oc2cccc(Br)c2)n1 | 0.4 | 0.652 | 2.2 | 5.7% | 2.8 | -0.1 | -0.8
CCCCOCC(O)CCc1n[nH]c(=S)n1-c1ccccc1 (stereo not drawn) | 1.2 | 0.639 | 2.1 | -5.7% | -7.0 | -0.6 | -1.4
C=CC[C@H]1Cc2c(cccc2[N+](=O)[O-])[C@H](CC=C)N1 | 3.3 | 0.663 | 3.8 | -8.7% | 4.1 | 1.1 | 1.2
Cc1cc(C(=O)N/N=C/c2ccc(-c3cccc(Cl)c3)o2)n[nH]1 | 4.9 | nt | nt | -2.0% | 19.2 | 0.3 | -0.3
O=C(CSc1nnc(C2CC2)n1-c1ccccc1)N1CCCC1 | 0.2 | 0.653 | -0.5 | -7.3% | -6.8 | 0.0 | 0.4
Cc1ccc(S(=O)(=O)N2CCCC2CNC(=O)c2ccc3c(c2)OCO3)cc1 (stereo not drawn) | -0.7 | 0.647 | 2.3 | -9.2% | -0.9 | -0.6 | 3.2
COCCn1c(SCc2ccc(C(=O)OC)o2)nc2cc(Cl)ccc2c1=O | -2.7 | 0.773 | 1.7 | -0.2% | 3.9 | -0.6 | -2.3
COc1ccccc1NS(=O)(=O)c1ccc2c(c1)NC(=O)CC(=O)N2 | 2.0 | 0.636 | 3.7 | nt | 1.5 | -0.5 | -2.4
COc1ccc(CCc2nnc(NS(C)(=O)=O)s2)cc1 | -21.0 | 0.697 | 1.6 | nt | -2.0 | -0.7 | -0.9
COC(=O)c1sccc1NC(=O)CC1C(=O)NCCN1C(=O)Nc1ccccc1 (stereo not drawn) | 4.0 | 0.696 | 3.0 | 75.6% | 4.3 | -0.1 | -3.1
CC(C)CNC(=O)c1cc(S(=O)(=O)N2CCOCC2)ccc1N1CCCC1 | -4.6 | 0.658 | 2.8 | nt | 8.5 | -0.2 | -0.6

More entries.
Structure | LANA-H2B inh | Ecoli growth | UCH37 DUB inh | Vif A3G | Beta2AR agonist | Bfl-1 A1 inh | HNF4A DNA FP
Cc1nn(C)cc1C(=O)/C=C/c1ccc([N+](=O)[O-])cc1 | 2.0 | 0.662 | 1.8 | 31.7% | 5.2 | 0.0 | -3.5
COc1cccc(C(=O)C2CCCN(Cc3cccc(-n4nc(C)cc4C)c3)C2)c1 (stereo not drawn) | 0.8 | 0.704 | 2.9 | 4.7% | 12.6 | -0.4 | 2.2
COc1ccc(C(=O)N2CCN(C(=O)Cc3ccccc3)CC2)cc1OC | 1.2 | 0.719 | 1.4 | 0.0% | -3.9 | 0.2 | -3.5
O=c1nc(-c2ccccc2)nc(-c2ccccc2)[nH]1 | 2.5 | 0.7 | 2.0 | 0.2% | 11.5 | -0.2 | 1.1
COc1cccc(/C=c2\sc3nc(-c4cccs4)nn3c2=O)c1OC | -0.1 | nt | nt | 21.5% | 0.1 | 0.3 | -1.2
Cc1ccc2[nH]c(-c3cccc(F)c3)cc(=O)c2c1 | -2.0 | 0.66 | -2.9 | 24.0% | 12.5 | 0.4 | -2.2
CC(=O)c1sc(NC(=O)c2cccs2)nc1C | 2.0 | 0.673 | 4.9 | -6.6% | 20.0 | -7.3 | -2.8
CCN(c1ccccc1C)S(=O)(=O)c1cc2c3c(c1)CCC(=O)N3CCC2 | 0.2 | 0.694 | 2.5 | 7.8% | -0.5 | 1.2 | 9.7
CC(=O)N1c2ccc(S(=O)(=O)N3CCC(C(=O)N4CCN(c5cc(Cl)ccc5C)CC4)CC3)cc2CC1C (stereo not drawn) | 0.1 | 0.699 | 1.5 | nt | 12.0 | 0.4 | 1.3
CCn1c(SCC(=O)Nc2cc(C)on2)nnc1-c1cccs1 | 0.1 | 0.684 | -2.7 | -2.9% | -0.7 | 0.6 | -1.6
CCOC(=O)c1sc(C)c2c1NC(c1ccc(N(C)C)cc1)NC2=O (stereo not drawn) | -0.9 | 0.728 | -84.3 | -4.5% | 2.9 | -0.4 | 7.5
COc1ccc(S(=O)(=O)Cc2ccc(C(=O)NCc3ccco3)o2)cc1 | 3.2 | 0.763 | 5.5 | 1.4% | -3.1 | 0.7 | 1.2
O=C(O)C1CSC(c2ccc3c(c2)OCO3)N1 (stereo not drawn) | 22.3* | 0.67 | 1.9 | -1.3% | -11.2 | 0.0 | 6.6
Cc1cc(C)n(-c2nc3c(c(=O)[nH]c(=O)n3C)n2Cc2ccc(F)cc2)n1 | -2.4 | 0.748 | -1.2 | 18.1% | 4.5 | -0.3 | 0.7
C[C@H]1CC[C@@]2(O[C@H](CCO)C[C@H](O)[C@H]2O)O1 | 0.4 | nt | 1.8 | nt | -6.8 | -0.5 | 2.1
COc1cccc(NC(=O)CN(C)CC(=O)Nc2ccccc2-c2ccccc2)c1 | 1.0 | 0.652 | 3.7 | 5.0% | -1.3 | 0.9 | 4.2
CCN(Cc1ccccc1)S(=O)(=O)c1cc(C(=O)NCC2CCCCC2)ccc1OC | 2.2 | 0.707 | 4.0 | nt | 20.3 | 0.2 | 3.6
CC(C)n1nnnc1C(c1ccc(F)cc1)N1CCN(C2CCCC2)CC1 (stereo not drawn) | nt | 0.794 | -0.6 | ? | 11.9 | nt | -0.2
O=[N+]([O-])c1cccnc1Oc1ccc(F)cc1 | -0.4 | 0.648 | 2.8 | nt | 1.9 | 0.7 | 1.7
CCCCC(=O)N1CCN(c2nc(-c3ccc(F)cc3)cs2)CC1 | nt | 0.653 | 3.9 | nt | -0.8 | nt | 4.7

The list goes on:
Structure | LANA-H2B inh | Ecoli growth | UCH37 DUB inh | Vif A3G | Beta2AR agonist | Bfl-1 A1 inh | HNF4A DNA FP
CCC1SC2=NCN(c3ccccc3)CN2C1=O (stereo not drawn) | 1.3 | nt | nt | ? | nt | 0.1 | nt
C=CCNC(=S)Nc1ccc(C(N)=O)cc1 | -0.7 | 0.696 | 2.6 | nt | 8.6 | 0.2 | 2.0
Cc1ccc(C(=O)NCC(=O)NCCCc2ccccc2)s1 | -5.7 | 0.672 | 5.2 | nt | -3.4 | -0.4 | 4.5
Cc1cc(C)nc(SC(C)C(=O)Nc2ccc(S(N)(=O)=O)cc2)n1 (stereo not drawn) | -0.6 | 0.671 | 2.5 | 3.0% | -4.5 | -0.6 | 4.3
CCCCOCCCNC(=O)CC(C)c1ccccc1 (stereo not drawn) | -5.1 | 0.727 | 2.0 | nt | -1.1 | -0.1 | 5.2
O=C(c1c[nH]c2ccccc12)N1CCN(c2ccccc2)CC1 | -1.2 | 0.729 | 2.3 | -3.2% | -14.1 | -1.2 | 10.9
O=C(Sc1cccc2cccnc12)c1ccccc1Br | 0.1 | nt | nt | nt | 2.1 | -0.4 | 19.0
CCC1=C/C(=C/N(C)c2ccccc2)C(=O)S1 | 3.6 | 0.669 | 2.8 | 30.9% | 29.3 | -0.3 | -2.3
CCCOc1ccc(S(=O)(=O)n2cc(Br)c(=O)[nH]c2=O)cc1 | 5.6 | 0.701 | 1.1 | 1.0% | -10.4 | 0.7 | -0.3
COc1ccc(S(=O)(=O)N2CCc3ccccc32)cc1NC(C)=O | -1.3 | 0.682 | 2.0 | nt | -8.6 | -0.5 | 2.8
CC1=CC(C2CC(=O)N(c3ccccc3C)C2=O)CC2C(=O)N(c3ccccc3C)C(=O)C12 (stereo not drawn) | -5.1 | 0.723 | 0.1 | -5.7% | 0.7 | -0.1 | -1.0
CC(C)NC(=O)N(C)C[C@@H]1Oc2ccc(NC(=O)CCN3CCOCC3)cc2CC(=O)N([C@@H](C)CO)C[C@@H]1C | -6.0 | nt | 2.2 | nt | 0.5 | -1.1 | 32.5
CCOc1ccc(NC(=S)c2ccncc2)cc1 | 11.8 | 0.683 | 5.8 | -12.4% | 6.0 | 0.1 | -1.3
CC(C)(C)c1ccc(C(=O)Nc2cccnc2)cc1 | -2.3 | nt | nt | 0.1% | 0.2 | -4.6 | 0.3
COc1cccc(C2NC(=S)NC3=C2CCc2ccccc23)c1 (stereo not drawn) | -5.1 | 0.71 | -4.4 | nt | -10.6 | 1.7 | -0.1
CN(C)/C=C(/C(=O)c1ccc(Cl)cc1)S(C)(=O)=O | -3.6 | 0.676 | 5.0 | 14.5% | -2.6 | -1.1 | 4.5
CC1(C)CC(=O)C=C(Nc2ccc([N+](=O)[O-])cc2)C1 | 4.0 | 0.671 | 12.4 | -0.9% | -3.1 | 0.4 | 0.8
Cc1nc(C)c(NC(=O)N2CCc3ccccc32)cc1NC(=O)N1CCc2ccccc21 | -6.6 | 0.772 | 5.7 | 7.7% | 0.9 | 0.6 | 4.0
COc1ccccc1NC(=O)N1CCCC1C(=O)NCCc1ccccc1 (stereo not drawn) | -1.3 | 0.693 | 2.3 | nt | -1.4 | 0.1 | -1.2
CCCCN(Cc1cc2cc(C)ccc2[nH]c1=O)C(=O)c1ccccn1 | 2.0 | nt | nt | -3.0% | -3.7 | 0.8 | -2.5

(cont.)
Structure | LANA-H2B inh | Ecoli growth | UCH37 DUB inh | Vif A3G | Beta2AR agonist | Bfl-1 A1 inh | HNF4A DNA FP
COCC(=O)Nc1nc(-c2ccc(C)cc2)c(C)s1 | 1.9 | 0.71 | 2.2 | 0.3% | 2.6 | 0.4 | 4.1
Cc1cccc(NC(=O)CN2CCC(NC(=O)C3CCCCC3)CC2)c1C | 1.6 | 0.715 | 2.7 | nt | 3.2 | 1.0 | 2.6
CCC(C)(C)c1nnc(NC(=O)CCC2CCCCC2)s1 | 1.4 | 0.613 | 0.9 | nt | 5.9 | -0.3 | 2.9
CN(CC(=O)Nc1ccccc1Cl)CC(=O)Nc1c(F)cccc1F | 1.3 | nt | nt | -9.2% | -5.5 | -0.3 | -0.9
OC1CCN(Cc2ccc3ccccc3c2)CC1 | 0.8 | 0.625 | 1.0 | -13.0% | -1.4 | 0.5 | 0.5
CC(=O)Nc1ccc(S(=O)(=O)Nc2ccc3ccccc3n2)cc1 | 2.8 | 0.686 | -6.5 | nt | -3.9 | 1.5 | -1.4

Not a hit list (roughly 2.1% active in at least one column).
